# Arbovirus inh = antivirals against arbovirus infection, primary screen, cell-based, full library, 10K replicate subset. arbovirus infection cell-based antiviral screen. inhibition, % at 10 µM. 0.37% of 200,000 active. AID 1251, 2008;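 active = inhibition from about 30%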;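 note: bluetongue infection of BSR cells; cell survival read as ATP light after 72 h; 0% = infected wells without compound and 100% = uninfected wells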
# RecA intein inh = Mtb RecA intein splicing inhibitors, primary screen, biochemical, fluorescence, HTS | cell-free RecA intein splicing | inhibition, %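 (about 9 µM by stock and volumes)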 | 0.75% of 290,000 active | AID 2221, 2009; in the data active = inhibition above about 30%; inconclusive = no clear call, values can overlap the other calls;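 note: 0% = vehicle wells and 100% = reference inhibitor control wells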
# Target sequence (P9WHJ3 whole entry, looked up): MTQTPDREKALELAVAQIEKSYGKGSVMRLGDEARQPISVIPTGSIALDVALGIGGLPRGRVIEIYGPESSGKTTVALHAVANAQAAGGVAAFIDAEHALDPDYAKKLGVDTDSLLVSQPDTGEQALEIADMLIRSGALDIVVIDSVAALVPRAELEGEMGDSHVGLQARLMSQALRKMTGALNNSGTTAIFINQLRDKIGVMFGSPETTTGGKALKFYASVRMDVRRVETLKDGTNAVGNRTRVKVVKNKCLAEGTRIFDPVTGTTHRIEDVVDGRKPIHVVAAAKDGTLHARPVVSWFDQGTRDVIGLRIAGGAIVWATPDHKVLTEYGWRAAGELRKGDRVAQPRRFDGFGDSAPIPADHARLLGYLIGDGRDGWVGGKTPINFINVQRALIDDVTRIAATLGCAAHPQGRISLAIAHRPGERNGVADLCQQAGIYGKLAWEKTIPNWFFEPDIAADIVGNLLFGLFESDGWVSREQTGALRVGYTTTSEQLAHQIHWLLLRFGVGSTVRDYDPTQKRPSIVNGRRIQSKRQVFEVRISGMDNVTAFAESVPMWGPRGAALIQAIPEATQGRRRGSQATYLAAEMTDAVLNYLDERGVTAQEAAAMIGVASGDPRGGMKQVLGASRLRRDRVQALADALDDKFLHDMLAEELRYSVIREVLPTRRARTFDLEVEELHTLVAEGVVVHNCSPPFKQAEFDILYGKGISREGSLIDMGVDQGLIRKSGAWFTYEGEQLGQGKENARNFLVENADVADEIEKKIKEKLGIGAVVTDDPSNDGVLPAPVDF
# YopH inh = YopH tyrosine phosphatase inhibitors, primary screen, biochemical, fluorescence Ex485/Em525 | inhibition, %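 (about 10 µM by stock and volumes)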 | YopH tyrosine phosphatase [Yersinia enterocolitica] | 0.16% of 140,000 active;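 active = inhibition of 50% or more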;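 note: controls were vehicle for no effect and minimum signal wells for full effect; inactives centre near -20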
# Mtb H37Rv = M. tuberculosis H37Rv growth inhibitors, H37Rv strain (AID 1626); M. tuberculosis H37Rv growth inhibition; higher % means a stronger effect; inhibition, % at 10 µM, or IC50 in µM where a hit was titrated; 0.95% of 220,000 active;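 active = confirmed in a dose series; inconclusive = inhibition above 80% but not taken into the dose series; inactive = below 80% or under 30% at every dose of the series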;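 note: bacteria incubated seven days before Alamar blue readout; 0% = bacteria only wells and 100% = bacteria with antibiotic wells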
# Mtb bLac sens = beta-lactam sensitization of Mtb H37Rv, H37Rv | M. tuberculosis H37Rv growth with meropenem, percent inhibition; hits of this screen are not shown here | AID 434955, 2010 | 0.27% of 330,000 active | inhibition, % at 25 µM;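 active = about 74% or more and at least 40 points above the plate without the antibiotic, then above 30% in a dose series; inconclusive = first-round hits that could not be retested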;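 note: growth measured after seven days incubation then overnight dye step; 0% = bacteria only wells and 100% = bacteria with antibiotic; twin plates without the antibiotic show which effects depend on it; some results filed as inactive read as strong as hits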
# Arbovirus inh repeat = second read-out of Arbovirus inh, no call of its own (marks repeat the call); inhibition, %; measured here: 10K subset replicate screen; many hits read low in the repeat;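 first of two repeat runs on a subset; 0% = infected and 100% = uninfected wells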
# * hit, by the source's call; ? = inconclusive; / = not tested or not shown.
SMILES,Arbovirus inh,RecA intein inh,YopH inh,Mtb H37Rv,Mtb bLac sens,others
CCOc1ccc(S(=O)(=O)N2CCCCC2)cc1NC(=O)CN1C(=O)NC(C)(c2ccc(C)cc2)C1=O (stereo not given),/,6.8,/,/,1,
COCCCn1c(Cc2ccccc2)nnc1SCC(=O)N1CCCCC1,7,-1.7,-46,-9%,-3,
CC1(C)Oc2ccc(C(=O)N3CCOCC3)cc2N(CC(=O)Nc2ccccc2)C1=O,2,0.4,13,-3%,-3,
O=C(c1ccc([N+](=O)[O-])cc1)N1CCSC1c1ccc(Br)cc1 (stereo not given),8,-0.7,/,-1%,6,
Cc1ccccc1NC1=NC(=S)N(CC(N)=O)C12CCOC(C)(C)C2 (stereo not given),/,3.3,/,17%,-8,
COc1cc(C(C)=O)ccc1COc1ccc(C(=O)O)cc1OC,/,2.0,/,-9%,-2,
C=CCn1c(SCC(=O)O)nnc1-c1cccs1,-11,-0.8,-20,-6%,-19,
COC(=O)c1ccsc1NC(=O)C1COc2ccccc2O1 (stereo not given),31*,15,-42,9%,-2,Arbovirus inh repeat=20*
O=C(c1cc2ccccc2oc1=O)N1CCSC1c1ccco1 (stereo not given),5,0.7,-11,1%,8,
O=C(C1CC1)N1N=C(c2ccc(Br)cc2)CC1(O)C(F)(F)F (stereo not given),/,1.4,/,/,95,
O=C1NC2(CCCc3ccccc32)C(=O)N1Cc1nnc(-c2ccccc2Br)o1 (stereo not given),-1,4.3,-29,-2%,-5,
CN(C)c1cc[n+](CC(=O)Nc2ccccc2C(F)(F)F)cc1,/,-1.6,/,/,6,
O=C1CCCC2=C1C(c1ccc(O)c(O)c1)Nc1ccc3ccccc3c12 (stereo not given),/,-5.3,/,/,9,
CCN(CC)CCNC(=O)C1CCC(=O)N(c2ccc(OC)cc2)C1c1ccc(F)cc1 (stereo not given),0,/,-47,-10%,-6,
COc1cccc(N2CCN(C(=O)CN(C)S(=O)(=O)c3ccc4c(c3)c(=O)n(C)c(=O)n4C)CC2)c1,6,/,/,0%,6,
CCOC(=O)c1c(-c2ccc(C)cc2)csc1NC(=O)/C(C#N)=C/c1ccc(O)c(OC)c1,4,/,-19,2%,/,
CCn1c(COc2ccc(=O)n(-c3ccccc3)n2)nnc1SCc1ccccc1C,-7,-3.3,-38,-2%,-21,
O=C(Nc1cccc(Cl)c1)Nc1ccnc(-c2cccnc2)n1,34*,5.4,/,5%,12,
O=C(OCC(=O)N1CCN(S(=O)(=O)c2ccc(Cl)cc2)CC1)c1cccc(OC(F)F)c1,/,-4.7,/,/,-4,
COc1ccccc1C(CNC(=O)c1ccc(NS(=O)(=O)c2ccc3c(c2)OCCO3)cc1)N(C)C (stereo not given),/,0.2,/,/,9,

# Molecules listed so far that have an aryl thioether with sulfur outside any ring (three):
SMILES,Arbovirus inh,RecA intein inh,YopH inh,Mtb H37Rv,Mtb bLac sens,others
COCCCn1c(Cc2ccccc2)nnc1SCC(=O)N1CCCCC1,7,-1.7,-46,-9%,-3,
C=CCn1c(SCC(=O)O)nnc1-c1cccs1,-11,-0.8,-20,-6%,-19,
CCn1c(COc2ccc(=O)n(-c3ccccc3)n2)nnc1SCc1ccccc1C,-7,-3.3,-38,-2%,-21,

# Going on with the list.
SMILES,Arbovirus inh,RecA intein inh,YopH inh,Mtb H37Rv,Mtb bLac sens,others
COc1ccccc1CN1CCN(Cc2nc(-c3cccs3)no2)CC1,0,-5.6,/,4%,-4,
O=C(CN1C(=O)/C(=C/c2ccccc2F)Sc2ccccc21)NCc1cccnc1,5,2.1,/,1%,19,
N=C(N)N1CCc2ccccc21,/,2.7,/,-6%,-1,
COc1ccc(CCNC(=O)C2CCCN2C(=O)Nc2ccccc2)cc1OC (stereo not given),/,-0.3,/,/,-2,
Cn1cc(CNC(=O)c2cc(-c3ccccc3)nc3ccc(Br)cc23)cn1,-6,-4.1,-26,10%,8,
Cc1ccc(Nc2nc3ccccc3s2)cc1,2,0.9,-23,8%,9,
O=C(c1ccc(CS(=O)(=O)c2ccc(Br)cc2)o1)N1CCOCC1,7,-0.3,-55,-13%,1,Arbovirus inh repeat=3
COc1ccccc1NC(=O)CN1CCN(c2ccccc2)CC1,8,0.0,/,1%,-2,
Cc1cc(C)n(-c2ccc(C(=O)OCC(=O)Nc3cc(Cl)ccc3[N+](=O)[O-])cc2)n1,2,-3.0,-27,-8%,12,
Cc1csc(NC(=O)CSc2nc3sc(C)c(C)c3c(=O)[nH]2)n1,3,-0.9,-41,-4%,-5,
Cc1cccc(NC(=O)NCCCCc2ccccc2)c1,/,5.0,/,/,-9,
CCn1nc(CC(C)C)cc1C(=O)N1CCCC(Nc2ccc(F)cc2)C1 (stereo not given),/,-1.7,/,/,0,
Cc1ccc(NC(=O)c2ocnc2C)cc1Cl,-1,7.4,-26,-3%,11,
CCOC(=O)c1c(C)[nH]c(C)c1S(=O)(=O)NCCCN1CCOCC1,/,-0.6,/,/,-8,
COc1ccc(CCNC(=O)Cc2ccsc2)cc1,/,0.4,/,/,3,
FC(F)(F)c1cc(N2CCNCC2)c2ccccc2n1,/,3.0,/,-4%,-10,
O=C(CSc1nnnn1Cc1ccccc1)c1ccc(F)cc1,/,2.3,/,1%,-8,
COc1ccccc1NC(=O)CSc1nc2ncccc2[nH]1,4,1.9,-48,-7%,-5,Arbovirus inh repeat=4
CCCCCNc1nc2sc3c(c2c(=O)n1-c1cccc(Cl)c1)CCN(C)C3,/,-5.0,/,5%,1,
COc1cccc(N=Nc2c(C)[nH]n(-c3ccccc3)c2=O)c1,/,4.2,/,/,50,
COc1cccc(NC(=O)c2ncn[nH]2)c1,1,5.4,-19,3%,-4,
O=C(NNc1c(Cl)cc(Cl)cc1Cl)c1n[nH]c(=O)c2ccccc12,/,-1.5,/,14%,-2,
Cn1cccc1/C=C1\SC(=Nc2ccc(O)cc2)NC1=O,/,1.1,/,-10%,-5,
O=C(NCCN1CCc2ccccc2C1)C1CCN(S(=O)(=O)N2CCC3(CC2)OCCO3)CC1,1,-2.5,-30,-3%,0,
COC(=O)CC1NC2CCCCC2NC1=O (stereo not given),4,-0.7,5,3%,-9,
COc1ccccc1C(=O)NNC(=O)c1ccc(NC(=O)CC(C)C)cc1,3,-3.9,/,7%,-5,
O=C1NC(=O)c2cc(Oc3ccc([N+](=O)[O-])cc3)ccc21,/,-1.7,/,/,2,
CSc1nc(N(C)NC(=O)c2ccc(Cl)cc2)c2ccccc2n1,-3,1.1,-34,-3%,33,
Cc1nc2cc(Cl)c(Cl)cc2n1-c1ccccn1,/,-1.1,/,/,9,
CCOC(=O)c1c(C)nc(-c2ccccc2)nc1NC(=O)C(C)C,0,-0.6,-37,12%,-5,
Cc1nn(C)cc1S(=O)(=O)N1CCN(c2ccccc2F)CC1,/,-1.5,/,/,-6,
COc1ccc(-c2noc(CCC(=O)NC3CCCCCC3)n2)cc1,/,-4.2,/,/,6,
O=C(N/N=C/c1ccc2c(c1)OCO2)c1ccc(Cn2cc([N+](=O)[O-])cn2)o1,-18,-1.9,-31,-3%,67,
O=C(N/N=C/c1ccsc1)c1cc(O)cc(O)c1,6,-1.4,-28,3%,4,
O=C(Nc1cccnc1Cl)c1cc(-c2cccc(Cl)c2)on1,/,0.5,/,/,4,
COc1ccccc1Cc1nc(-c2ccc(Br)o2)no1,-14,12,-36,2%,-3,Arbovirus inh repeat=-9
Cc1cccc(N2C(=O)NC3(CCCCC3)C2=O)c1,6,-2.4,-11,-2%,-7,
O=C(c1cc2nc(C3CC3)cc(C(F)F)n2n1)N1CCOCC1,3,1.5,21,-2%,-8,
COC(=O)CC1=C(C(=O)OC)C(c2cccs2)C(C#N)=C(N)O1 (stereo not given),-6,0.5,-56,-7%,4,
Cc1cc(F)ccc1S(=O)(=O)Nc1nc2ccccc2nc1Cl,/,-20,/,/,7,
O=C(NC(=O)c1ccccc1)OCC(F)(F)F,11,0.6,-60,1%,-5,Arbovirus inh repeat=6
O=C1NC(=S)NC(=O)C1=Cc1ccc(Br)s1,/,-4.6,/,/,3,
CN1CCN(C(=O)CCN2C(=O)/C(=C\c3ccc(Cl)cc3Cl)SC2=S)CC1,/,4.7,/,3%,-1,
Fc1ccc(NC(=S)N2CCOCC2)c(F)c1,/,-1.3,/,/,-10,
COC(=O)[C@H](Cc1ccccc1)NC(=O)C1(OC(C)=O)CC(OC(C)=O)C(OC(C)=O)C(OC(C)=O)C1 (stereo not given in full),/,-2.5,/,/,-1,
COc1ccccc1NC(=O)N1CCN(S(C)(=O)=O)CC1,7,-0.6,/,5%,-4,
O=C(Cn1c(=O)[nH]c2sc3c(c2c1=O)CCCC3)NCC1CCCO1 (stereo not given),/,-0.4,/,/,-5,
CC(c1ccccc1)N1C(=O)NC(NC(=O)C(C)(C)C)(C(F)(F)F)C1=O (stereo not given),-9,0.6,-7,1%,-1,
COc1ccc(S(=O)(=O)NCC2CCCN(C(=O)c3cccnc3)C2)cc1 (stereo not given),1,1.8,/,-5%,-4,
COC(=O)c1ccc2ccccc2n1,/,-0.8,/,-11%,1,
C=CCc1ccc(OC(=O)c2ccccc2)c(OC)c1,4,3.7,/,2%,-10,
O=C(N/N=C/c1ccc2c(c1)OCO2)c1cccs1,-14,-0.8,-17,-2%,9,
O=C(Nc1ccc(Br)cc1)c1ccc(N2C(=O)C3CC=C(Cl)CC3C2=O)cc1 (stereo not given),-16,1.1,-23,-1%,5,
CC(=O)c1ccc(N=c2scc(C)n2C(C)C)cc1,4,0.1,/,3%,12,
O=C(OCc1c(Cl)cccc1Cl)c1cnccn1,-2,-2.9,9,58%,72,
COC(=O)CNC(=O)C(NC(=O)OCc1ccccc1)C(C)C (stereo not given),18,-0.4,/,12%,81,
CCOCC(=O)Nc1cccc(-c2nc3cccnc3s2)c1C,-4,-5.8,/,-2%,5,
COC(=O)CSc1nnnn1-c1ccccc1,5,-4.5,-34,4%,-9,
CCCSC1=C(C#N)C(c2ccc(Cl)cc2Cl)CC(=O)N1 (stereo not given),9,1.7,-13,3%,98,Arbovirus inh repeat=1
COc1ccc(OCc2nc(N)nc(Nc3ccccc3OC)n2)cc1,4,0.0,-23,-4%,5,

# Grouped by structure: those above with a cyano group (three)
SMILES,Arbovirus inh,RecA intein inh,YopH inh,Mtb H37Rv,Mtb bLac sens,others
CCOC(=O)c1c(-c2ccc(C)cc2)csc1NC(=O)/C(C#N)=C/c1ccc(O)c(OC)c1,4,/,-19,2%,/,
COC(=O)CC1=C(C(=O)OC)C(c2cccs2)C(C#N)=C(N)O1 (stereo not given),-6,0.5,-56,-7%,4,
CCCSC1=C(C#N)C(c2ccc(Cl)cc2Cl)CC(=O)N1 (stereo not given),9,1.7,-13,3%,98,Arbovirus inh repeat=1

# More entries
SMILES,Arbovirus inh,RecA intein inh,YopH inh,Mtb H37Rv,Mtb bLac sens,others
COc1ccccc1NC(=S)NC(NC(=O)c1ccco1)C(Cl)(Cl)Cl (stereo not given),3,1.7,-37,-9%,0,
CCNC(=S)N/N=C/c1cccc(C)c1,-7,0.5,-10,5%,6,
CC(Oc1ccc([N+](=O)[O-])cc1)C(=O)NCC1CCCO1 (stereo not given),/,-2.1,/,/,0,
O=C(CSc1nc2ccccc2[nH]1)NCc1ccccc1,/,1.7,/,/,-1,
Cc1ccc2cc(C)c(SCC(=O)NCC3CCCO3)nc2c1 (stereo not given),/,-1.8,/,/,1,
CCOc1ccc(C(=O)Oc2cc(C)[nH]c(=O)c2[N+](=O)[O-])cc1OCC,/,-3.9,/,/,-1,
O=C(O)CN1C(=O)c2ccc(C(=O)c3ccccc3)cc2C1=O,/,-0.2,/,/,10,
CCCOc1ccc(C2NC(=S)NC(C)=C2C(=O)c2ccccc2)cc1OC (stereo not given),4,-2.3,-25,-2%,2,
CCCN(CCC)CCCNC(=O)CN1C(=O)CSc2ccc(S(=O)(=O)N3CCOCC3)cc21,-2,0.5,/,4%,4,
COc1ccc(OC)c(S(=O)(=O)NCc2ccc(N3CCN(C)CC3)cc2)c1,/,1.5,/,/,-3,
O=C(O)C1C2C=CC(C2)C1C(=O)Nc1cccc(Cl)c1 (stereo not given),/,-0.6,/,/,?,
CC1=C(C(=O)OCc2ccccc2)C(c2cccnc2)n2nnnc2N1 (stereo not given),-1,1.8,-18,10%,0,
CC(Sc1nc2ccc(Br)cc2[nH]1)C(=O)O (stereo not given),3,-0.6,-37,-4%,-4,
CCOC(=O)COc1ccc(S(=O)(=O)c2ccc(OCC(=O)OCC)cc2)cc1,4,-3.0,-19,-9%,-6,
CCN(CC)C(=O)CSc1nnc(-c2cccnc2)n1CCc1ccccc1,0,5.9,-4,-3%,-8,
COc1ccc(OC)c(NC(=O)C(=O)N/N=C/c2ccccc2[N+](=O)[O-])c1,-12,5.0,-18,-4%,1,
Cc1ccc(C2C(C(=O)c3cc4ccccc4o3)=C(O)C(=O)N2CCN2CCOCC2)cc1 (stereo not given),/,2.1,/,/,0,

# Source: PubChem BioAssay (several laboratories)

# This is a subset; the hit share may differ from the screen's.
